Assay outcomes deposited in PubChem by National Center for Advancing Translational Sciences (NCATS).
gsp agonist: activates gsp, the McCune-Albright syndrome mutation | gsp mutant cells, cAMP HTRF, 30 min; control for the full effect not named in the record | Potency, µM (titrated, usually from 76.9 µM), inactives show at the highest dose activation (cAMP increase), usual class: activators | 0.13% of 340,000 active; active = well fitted activation curve with a large enough effect; inconclusive = small, poorly fitted or top-dose-only effect, or another doubt; inactive = no such curve, though single readings can be large or run the other way; cell line not stated here;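 note: phosphodiesterase inhibitor Ro 20-1724 added with compounds to block cAMP breakdown; potency is the fitted concentration of half-maximal effect; nearly all actives have a fitted effect of over 60% in size; about a fifth of the inactives were tested at one dose only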
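Cells in DMEM/10% FBS with G418 were pretreated with compounds in DMSO plus […] (300 uM stock) for 30 min at 37C. cAMP was measured by HTRF (cAMP-d2 plus anti-cAMP antibody-K) after 30 min at room temperature.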
Menin-MLL FL inh: menin-MLL binding inhibition, fluorescein peptide; Fluorescence polarization, fluorescein-MLL peptide displacement from menin; 290,000 tested, under 10 active; FP activity change, % at 61.4 µM; inconclusive = falling polarisation curve, or a change in total fluorescence; inactive = total fluorescence flat and polarisation flat or rising; no compound was filed as active; the % refers to the polarisation; negative = inhibition;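 note: % of control where 0% means no effect; inhibitors lower the polarisation; unlabelled MLL peptide was the positive control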
TRPV1 PAM: potentiators of human vanilloid receptor 1 (TRPV1); 0.02% of 320,000 active; AID 540277; Q8NER1; potentiation, % at 8.33 µM; TRPV1-expressing cells, Fluo-8 calcium influx, capsaicin EC20 potentiation; host cell line not named in the record; control for the full effect not named in the record; active means potentiation above 80%; inconclusive means 30% to 80%; inactive means below 30%; note: 0% is about no effect
Target sequence (Q8NER1 whole entry, looked up): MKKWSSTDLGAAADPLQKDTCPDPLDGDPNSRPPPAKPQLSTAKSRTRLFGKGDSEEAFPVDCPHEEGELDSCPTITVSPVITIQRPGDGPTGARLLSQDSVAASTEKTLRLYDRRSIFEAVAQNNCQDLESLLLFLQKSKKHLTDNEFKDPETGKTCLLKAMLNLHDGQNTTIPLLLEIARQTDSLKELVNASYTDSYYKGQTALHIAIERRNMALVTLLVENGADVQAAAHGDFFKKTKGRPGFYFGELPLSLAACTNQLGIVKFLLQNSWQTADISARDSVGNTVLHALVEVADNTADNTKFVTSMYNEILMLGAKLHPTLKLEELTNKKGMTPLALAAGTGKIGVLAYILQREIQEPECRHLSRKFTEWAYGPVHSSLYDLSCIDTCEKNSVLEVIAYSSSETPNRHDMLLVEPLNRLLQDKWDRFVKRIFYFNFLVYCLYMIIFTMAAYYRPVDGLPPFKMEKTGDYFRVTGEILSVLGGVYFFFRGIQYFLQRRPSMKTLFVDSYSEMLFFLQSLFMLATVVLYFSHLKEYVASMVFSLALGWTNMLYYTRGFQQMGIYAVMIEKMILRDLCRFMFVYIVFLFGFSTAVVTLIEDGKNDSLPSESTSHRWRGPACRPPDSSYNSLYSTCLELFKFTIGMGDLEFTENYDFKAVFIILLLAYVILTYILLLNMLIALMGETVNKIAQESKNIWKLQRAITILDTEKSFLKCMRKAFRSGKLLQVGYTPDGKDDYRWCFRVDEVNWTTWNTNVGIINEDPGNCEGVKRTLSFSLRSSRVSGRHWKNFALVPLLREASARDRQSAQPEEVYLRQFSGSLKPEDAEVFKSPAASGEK
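Fluo-8 calcium influx in TRPV1-expressing cells, kinetic read (ex 480/em 520 nm). Compound added and read 3 min for agonist activity, followed by capsaicin at EC20 final and 2 min further read for enhancement.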
gsp antagonist: antagonists of gsp mutant (McCune-Albright syndrome); gsp-mutant cells, cAMP HTRF, 30 min; control for the full effect not named in the record; Potency, µM (top dose mostly 76.9 µM), for inactives: top-dose activity change, negative = inhibition, usual class: inhibitors; 0.4% of 340,000 active; AID 624288; active = falling curve of any shape with a large fitted effect; inconclusive = falling curve, mostly with a smaller effect; inactive = flat or rising curve; cell line not stated here;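 note: intracellular cAMP measured with PDE inhibitor Ro 20-1724 present during compound exposure; potency is the fitted concentration of half-maximal effect; % is set by controls: 0 for no effect and ±100 for the full control effect; nearly all actives have a fitted effect of over 65% in size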
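Cells in G418 medium, seeded 16-24 h, 37C; buffer exchange to DPBS + 1 mM CaCl2, 0.5 mM MgCl2, 0.05% BSA; cpds in DMSO + […] (300 uM stock), 30 min 37C; HTRF cAMP detection.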
CtBP-E1A inh: CtBP/E1A binding inhibition; AlphaScreen GST-E1A/His-CtBP binding, 1536-well; stronger effect = lower value; control for the full effect not named in the record; AID 651724; activity change, % (test concentration not listed); 0.49% of 340,000 active; in the data active means activity change below about -65%; inconclusive means about -30% to -65%; inactive means above about -30%; note: % is set by controls: 0 for no effect and ±100 for the full control effect; compound concentration not given in the record
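Homogeneous bead-based format: GST-tagged E1A captured on glutathione donor beads, His-tagged CtBP on nickel acceptor beads; compounds precede bead addition by 2 h at 37 °C.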
ClpP mod: qHTS Assay for Activators of ClpP | ATP-dependent Clp protease proteolytic subunit (Bacillus subtilis (strain 168)), P80244 | purified B. subtilis ClpP, FRET peptide cleavage, 20 min | Potency, µM (titrated, usually from 57.5 µM), for inactives: at the highest dose activity change, negative = active | 1.9% of 340,000 active | AID 651965, 2013; active = well fitted falling curve with a large enough effect; inconclusive = small, poorly fitted or top-dose-only effect; inactive = no such curve, though single readings can be large or run the other way; note: potency is the fitted concentration of half-maximal effect; the source files actives as falling curves though it sought activators and does not explain the sign; nearly all actives have a fitted effect of over 65% in size; many hits overshoot -100%
Target sequence (P80244 whole entry, looked up): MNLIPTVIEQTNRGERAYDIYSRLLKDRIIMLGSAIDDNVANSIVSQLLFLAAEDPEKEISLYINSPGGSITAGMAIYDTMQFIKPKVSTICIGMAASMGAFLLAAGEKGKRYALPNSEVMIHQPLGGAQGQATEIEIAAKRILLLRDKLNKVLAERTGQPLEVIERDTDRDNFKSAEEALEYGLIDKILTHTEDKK
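Purified B. subtilis ClpP, 10 microg/mL final in Tris/HCl pH8 with KCl, BSA, glycerol and Tween-20, cleaved an Abz/nitrotyrosine-quenched decapeptide. Fluorescence (ex 320, em 430) was read at 0 and 20 min at room temperature. Delta was normalized to 5.8 microM ADEP and DMSO/no-enzyme controls.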
Sfp inh: Sfp phosphopantetheinyl transferase inhibition; Q9F4F7; Biochemical Sfp PPTase activity, qHTS; Potency, µM, inactives show max response, negative = inhibition, actives largely listed as inhibitors; 3.5% of 310,000 active; AID 1490; active = well fitted inhibition curve with a large enough effect; inconclusive = small, poorly fitted or top-dose-only effect, or another doubt; inactive = no such curve, though single readings can be large or run the other way;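 note: the enzyme is Sfp with the accession as filed and its product quenches rhodamine fluorescence; potency is the fitted concentration of half-maximal effect; 0% = enzyme reaction without inhibitor and -100% = no enzyme wells; top concentration of the series not given in the record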
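Reaction rates are the 30-min fluorescence difference (ex 525, em 598 nm) in wells containing 15 nM Sfp, 5 uM rhodamine-CoA and 12.5 uM BHQ-2-YbbR at pH 7.6 with 10 mM MgCl2.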
* hit, by the source's call; ? = inconclusive; · = not tested or not shown; & = joins results of further samples; [ ] = dose if it differs, or a comment.

Molecule,gsp agonist,Menin-MLL FL inh,TRPV1 PAM,gsp antagonist,CtBP-E1A inh,ClpP mod,Sfp inh
O=C(Nc1ccccc1)P(=O)(O)c1ccccc1,-6%,·,·,6%,3,·,·
Cc1csc2nc(CNS(=O)(=O)c3ccc(-c4ccccc4)cc3)cn12,-30%[inhibitor],0.1,-7,?,1,-8.2%,6%
COc1cccc(C(=O)NCc2ccc3c(c2)OCO3)c1,8%[15.4 µM],-3.6,8,-1%,4,-0.2%,9%
CCCN(CC(=O)Nc1cc(Cl)ccc1Cl)C(=O)c1ccc(N2CCCC2=O)cc1,0%,·,2,-13%,1,0.9%,·
Cc1c(C)n(Cc2ccccc2)c2ccc(C(=O)O)cc12,-2%[15.4 µM],·,·,-16%,-12,·,·
CC1(C)C(=O)C2(CCCCC2)C(=O)OC1c1cccn1-c1ccc([N+](=O)[O-])cc1 (centres undefined),8%,-0.6,-3,5%,2,32µM*,7%
O=C(C1CCN(S(=O)(=O)c2ccc3ccccc3c2)CC1)N1CCN(c2ncccn2)CC1,0%,-1.4,2,-9%,-2,-9.9%,7%
CCCCNC(=O)c1cc2c(=O)n3cccc(C)c3nc2n1C,·,5.6,15,·,·,·,16%
Cc1ccc(-n2c(SCC(=O)Nc3cccc(S(N)(=O)=O)c3)nc3ccccc32)cc1,2%,3.8,-11,?,-4,-4.1%,3%
COc1ccc(-c2nnc(SCC(=O)N3CCCc4ccccc43)o2)cc1OC,1%,6.2,9,14%,9,1.2%,3%
Cc1nccn1CC(=O)N/N=C/c1ccccc1O,1%[15.4 µM],-0.4,11,3%,-96*,·,20%
C/C(=N\Nc1ccc(Cl)c(Cl)c1)c1ccc(-n2ccnc2)cc1,-34%[inhibitor],6.3,11,-8%,-12,-3.7%,-19%
CC1=C(NCCc2ccccc2)CCC1=O,-19%,-0.7,-4,-5%,1,-1.3%,12%
CCn1c(=O)c(C(=O)CN2CC(C)OC(C)C2)c(N)n(Cc2ccccc2)c1=O (centres undefined),?,?,-7,-6%,4,5.2%,1%
CC1=C(C/C=C(\C)CCCC(C)CCCC(C)CCCC(C)C)C(=O)c2ccccc2C1=O (centres undefined),·,0.7,13,5%,4,2.3%,-6%
CCCCN(CCCC)CCNC(=O)c1cn(CC)c2ccc(S(=O)(=O)N3CCCC3)cc2c1=O,11%,·,-17,3%,·,-0.1%,12%
CN(c1ccccc1)C(c1ccc(F)cc1)c1nnnn1CC1CCCO1 (centres undefined),-9%,1.3,-9,-12%,-6,-2.2%,7%
CCCCn1c(N)c(N(CC)C(=O)c2cc(CC)c(C)s2)c(=O)[nH]c1=O,-1%[15.4 µM],·,-16,6%,-2,-2.3%,·
O=C(NCCc1c[nH]c2ccccc12)c1ccc(S(=O)(=O)NCc2ccco2)cc1,-6%,6.8,8,3%,-2,-1.1%,-22%
Cc1ccc(-n2c(SCC(=O)Nc3ccc4c(c3)OCO4)nnc2-c2ccccn2)cc1,-22%,3.8,4,13%,-3,1.5%,13%
Cc1ccc(OCC(=O)NNC(=O)C2CCCO2)c(C)c1 (centres undefined),-6%[15.4 µM],-4.8,-1,·,-9,·,14%
c1ccc(-c2nc3ccccc3o2)nc1,-3%,0.4,-2,12%,6,13µM*,16%
COc1cc(/C=C/C(=O)O)cc(S(=O)(=O)N2CCc3ccccc3C2)c1OC,-27%,0.2,6,-4%,2,·,-3%
CC(Oc1ccc2c3c(c(=O)oc2c1)CCC3)C(=O)N[C@@H](Cc1ccccc1)C(=O)O (some centres undefined),·,0.5,7,8%,4,4.8%,18%
O=C(O)CSc1nnc(-c2ccccc2)o1,-2%,1.8,5,14%,5,-1.3%,25%
CS(=O)(=O)N1CCc2cc(C(=O)N3CCN(c4cccc(Cl)c4)CC3)ccc21,2%,·,-13,?,-1,0.9%&-1.1%,9%
N#Cc1c2c(c(N3CCN(CCO)CC3)n3c1nc1ccccc13)CCCC2,·,1.4,10,·,·,·,21%
COc1ccccc1/C=C/C(=O)N1CCOCC1,?,3.3,5,4%,6,-23%,9%
COc1ccc(C2C(Oc3ccccc3)C(=O)N2c2ccc(C)c(C)c2)cc1OC (centres undefined),-4%,·,·,-5%,-2,-1.4%,·
CCN(CC)c1ccc2cc(-c3nc(-c4ccc(OC)cc4)cs3)c(=O)oc2c1,24%,?,3,4%,131,35%,2%
CCCCn1c(N)c(N(CCC(C)C)C(=O)c2sc3nc4n(c(=O)c3c2C)CCC4)c(=O)[nH]c1=O,12%,·,3,5%,-1,1.3%,10%
O=C(COC(=O)CC1SC(N2CCCC2)=NC1=O)Nc1c(F)c(F)c(F)c(F)c1F (centres undefined),-15%,·,12,5%,-20,-1.6%,·
CN1CC2CCCC3(C1)C(=O)NC1(CCCCC1)N=C23 (centres undefined),-72%[inhibitor],-1.2,8,8%,-1,-5.0%,12%
COc1ccc(NS(=O)(=O)c2cc3c(cc2C)N(C)CCO3)cc1,-47%[inhibitor],2.5,10,-4%,-9,1.6%,0%
COc1ccc(NC(=O)C2CCCNC2)cc1OCC(C)C (centres undefined),-28%,2.3,0,6%,-21,0.9%,7%
COc1ccc(C(=O)Nc2nc3ccccc3s2)cc1,7%,-1.6,-2,?,·,-5.2%,-15%
CN(C(=O)c1ccc(Br)o1)C1(C)CCS(=O)(=O)C1 (centres undefined),-6%,·,5,-5%,-2,0.5%,23%
Cn1c(SCC(=O)NCc2cccs2)nnc1-c1ccncc1,0%,4.1,-4,21%,2,-2.3%,12%
O=C(CSc1nc2ccccc2c(=O)n1CC1CCCO1)Nc1ccccc1 (centres undefined),2%,-3.5,-16,-4%,0,·,7%
O=C(COC(=O)c1cc(S(=O)(=O)N2CCCC2)ccc1O)Nc1ccc(F)cc1F,-35%[inhibitor],·,·,-19%,2,?,·
COc1ccc(Br)c(C(=O)OCC(=O)NC2CC2)c1,-23%,·,-1,4%,14,-2.1%,·
CCCn1c(CN2CCN(c3cccc(Cl)c3)CC2)nc2c1c(=O)n(C)c(=O)n2C,3%,3.9,?,5%,-19,-4.6%,-15%
CCOC(=O)N1CCN(Cc2nc3cc(NC(=O)c4cccs4)ccc3n2CC)CC1,?,·,2,-1%,-5,-1.5%,16%
COC(=O)C(C)n1cnc2c(nnn2-c2ccc(C)cc2)c1=O (centres undefined),?,-0.8,0,7%,-11,-1.1%,16%
COc1ccc(Nc2nc(N3CCOCC3)nc(N3CCOCC3)n2)cc1,-3%,-3.1,-1,-8%,·,-2.9%,25%
O=c1c2ccccc2nc(SCc2ccncc2)n1CC1CCCO1 (centres undefined),-3%[15.4 µM],-4.9,-8,-32%,-19,0.8%,22%
COc1ccccc1Nc1ccc(C(=O)NC2CCCCC2)cn1,29%,5.4,-2,-3%,-2,0.2%,8%
CC1(C)CC(=O)C(CC2=C(N)CC(C)(C)CC2=O)=C(N)C1,13%,-4.9,2,10%,·,-5.3%,6%
O=C(NN1C(=O)c2ccccc2C1=O)C1CCCCC1,-2%,5.1,-1,10%,0,0.9%,10%
CC(C)(C)OC(=O)[C@H](Cc1ccccc1)NC(=O)c1nc[nH]c1C(=O)N[C@@H](Cc1ccccc1)C(=O)OC(C)(C)C,·,4.2,?,-3%,-17,-4.2%,19%
O=C(NCCN1CCOCC1)C1CC(=O)N(c2cccc(C(F)(F)F)c2)C1 (centres undefined),-39%,·,13,7%,-1,-6.8%,·
COc1cc(OC)cc(C(=O)N(CCCN2C(=O)c3cccc4cccc(c34)C2=O)c2cccc(OC)c2)c1,4%,-4.1,6,10%,-8,3.3%,12%
O=C(Cn1nc(-c2ccccc2)oc1=O)OCC(=O)c1ccc(F)c(F)c1,5%,·,4,8%,-6,-0.5%,·
COc1ccccc1C(=O)NCc1ccc(-c2nc3ccccc3s2)cc1,-38%[inhibitor],0.3,20,9%,2,-14%,-10%
CCCOc1cccc(C(=O)N/N=C/c2ccoc2)c1,-16%,·,-21,-5%,-5,-0.9%,-1%
COc1ccc(COc2cc(-c3cccc(OC)c3)nc3ccc(NC(=O)c4ccc(Cl)cc4)cc23)cc1,·,2.3&-1.2,5,8%,-3,4.2%,15%&2%
Cc1cccc(NC(=O)Cn2c(=O)n(CCc3c[nH]c4ccccc34)c(=O)c3cccnc32)c1,·,1.4,14,·,·,·,22%
CC(NC(=S)NC1CCCCC1)C(c1cccs1)N1CCOCC1 (centres undefined),-3%[15.4 µM],-0.7,-26,-10%,-2,·,9%
CC1(C)Cc2ccccc2-c2nnc(-c3ccccn3)n21,10%,-1.7,22,-16%,1,-1.4%,9%
N#CCCN(Cc1cccnc1)C(=S)Nc1ccccc1Cl,8%[15.4 µM],2.9,-16,11%,10,·,6%

(next part)
Molecule,gsp agonist,Menin-MLL FL inh,TRPV1 PAM,gsp antagonist,CtBP-E1A inh,ClpP mod,Sfp inh
O=C(CC(=O)Nc1ccc(Cl)cc1Cl)Nc1ccc(Cl)cc1Cl,-3%,2.0,?,10%,7,·,5%
Cc1cccc(N(C(=O)CNC(=O)c2ccco2)C(C(=O)NC2CCCC2)c2cccnc2)c1C (centres undefined),2%,·,4,1%,5,·,18%
Cc1[nH]c2ccccc2c1C(=O)NS(=O)(=O)Nc1ccc(F)cc1,-50%[inhibitor],3.4,2,5%,5,·,13%
Cc1ccc(CN2CC(C(=O)NCCCn3nc(C)cc3C)CC2=O)cc1 (centres undefined),1%,·,·,10%,1,-0.8%,·
CN(C)S(=O)(=O)N1CCC(Oc2ccc(C(=O)N3C[C@@H]4CCC[C@H]3C4)cc2)CC1,5%,·,·,-16%,0,1.2%,·
COc1cc(/C=N/N2CCCCC2)cc([N+](=O)[O-])c1O,-28%,-4.2,5,-30%,-3,·,-2%
